# rRNA inh HTS = reduced GFP signal of wild-type E. coli, primary screen, bacterial rRNA inhibitor project, GFP/RFP fluorescence, OD600, single point | GFP signal change (wild-type ribosome), % (no concentration beside the values) | E. coli WT GFP vs humanized-ribosome RFP mutants, 24 h; active compounds read low; DMSO median 0, no signal -100 | 1.6% of 350,000 active;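 active means significant combined selectivity score with lowered wild-type GFP, culture density cut under 30%, mutant RFP and density less affected; inactive means any of these conditions unmet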; further: one replicate is shown; some compounds called inactive have numbers as strong as hits
# MLL AF4-AF9 inh = inhibitors of AF4 peptide binding to AF9, primary screen, biochemical, AlphaScreen, biotin-AF4 peptide, FLAG-AF9, single point; inhibition, % at 10 µM; 0.47% of 350,000 active; AID 651704, 2012;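 active means every replicate reaching a set inhibition limit, whatever the replicate mean, cut at about 25% in these data; inconclusive means mean inhibition reaches that limit but some replicates miss it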;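 further: 0% = plate neutral control median and 100% = total signal loss; the record names both 10 and 1 µM as test concentration; the first replicate is given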
# Target sequence (P42568 whole entry, looked up): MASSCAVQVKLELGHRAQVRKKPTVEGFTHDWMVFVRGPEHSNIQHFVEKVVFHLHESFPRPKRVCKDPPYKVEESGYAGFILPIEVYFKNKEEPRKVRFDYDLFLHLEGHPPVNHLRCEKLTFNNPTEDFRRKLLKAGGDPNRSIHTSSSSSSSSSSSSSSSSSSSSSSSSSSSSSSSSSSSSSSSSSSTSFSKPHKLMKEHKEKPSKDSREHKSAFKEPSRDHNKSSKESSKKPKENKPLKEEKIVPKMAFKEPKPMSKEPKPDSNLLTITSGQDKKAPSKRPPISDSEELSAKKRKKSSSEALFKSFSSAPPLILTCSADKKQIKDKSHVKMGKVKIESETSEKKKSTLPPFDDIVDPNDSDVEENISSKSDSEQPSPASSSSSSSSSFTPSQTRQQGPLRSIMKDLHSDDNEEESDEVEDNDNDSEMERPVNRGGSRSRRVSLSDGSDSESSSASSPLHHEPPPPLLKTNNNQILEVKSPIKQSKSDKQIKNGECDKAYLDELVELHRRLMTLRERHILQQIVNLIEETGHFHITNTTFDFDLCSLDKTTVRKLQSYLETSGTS
# rRNA inh HTS OD600 = also measured in rRNA inh HTS; calls as there; OD600 change, %; measured here: OD600 growth;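 optical density of the mix in the first replicate; 0 = DMSO median and -100 = no signal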
# rRNA inh HTS RFP = also measured in rRNA inh HTS; calls as there; RFP signal change, %; measured here: RFP humanized mutant strains;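 first replicate; 0 = DMSO median and -100 = no signal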
# Numbers without * were called inactive; ? = inconclusive; & = joins results of further samples. Only part of the results is shown, so the mix of outcomes need not match the whole.
1. Cc1noc(C)c1S(=O)(=O)Nc1ccc2c(c1)C(=O)N([C@H](C)CO)C[C@H](C)[C@H](CN(C)C(=O)Cc1ccccc1)OCCCC[C@H](C)O2
2. C[C@@H]1CN([C@@H](C)CO)C(=O)c2cc(/C=C/c3ccccc3)cnc2O[C@H]1CN(C)S(C)(=O)=O
3. C[C@H]1CN([C@@H](C)CO)C(=O)Cc2cc(NC(=O)Cn3cnnn3)ccc2O[C@H]1CN(C)C(=O)NC1CCCCC1
4. CCN1CC(=O)N2[C@@H](CO)[C@H](c3ccc(-c4ccccc4F)cc3)[C@@H]2C1
5. COc1ccc(S(=O)(=O)Nc2cccc3c2O[C@@H](CN(C)Cc2ccccc2)[C@H](C)CN([C@H](C)CO)C3=O)cc1
6. Cc1ccccc1-c1ccc2c(c1)O[C@H](CN(C)CC1CC1)[C@H](C)CN([C@H](C)CO)S2(=O)=O
Assay by compound	1	2	3	4	5	6
rRNA inh HTS	-2	-1	2	1	5	2
rRNA inh HTS OD600	-9	-13	4	10	-6	-1
rRNA inh HTS RFP	2.1	-3.2	1.6	-3.2	-1.0	1.2
MLL AF4-AF9 inh	1.9	4.0	-1.5	1.3	-3.5	8.9

7. O=C(C[C@H]1C[C@H]2c3cc(NC(=O)CC4CC4)ccc3O[C@H]2[C@H](CO)O1)NCc1cccnc1
8. O=C(c1cccc(F)c1)N1CC2(C1)[C@H](c1ccccc1)[C@H](CO)N2C(=O)C1CC1
9. CN1c2ccc(-c3ccccc3)cc2[C@@H]2[C@@H](CCN2C(=O)c2ccncc2)[C@@H]1CO
10. CCC(=O)N[C@H]1CC[C@H](CCn2cc(C3CC3)nn2)O[C@H]1CO
11. C[C@H](CO)N1C[C@H](C)[C@H](CN(C)C)Oc2ncc(C#Cc3ccccc3)cc2C1=O
12. CCCNC(=O)N1C[C@@H]2N[C@H](C1)C2c1ccc(-c2cccc(OC)c2)cc1 (some centres not stated)
Assay by compound	7	8	9	10	11	12
rRNA inh HTS	-1	-5	-3	1	8	-1&1
rRNA inh HTS OD600	1	-3	5	2	7	5&-13
rRNA inh HTS RFP	-0.2	-1.2	4.7	-0.5	1.2	-0.1&0.1
MLL AF4-AF9 inh	0.8	-2.8	2.1	-2.9	-1.2	-1.3&2.5

# Three records drawn at random from the list so far, as already listed:
9. CN1c2ccc(-c3ccccc3)cc2[C@@H]2[C@@H](CCN2C(=O)c2ccncc2)[C@@H]1CO
10. CCC(=O)N[C@H]1CC[C@H](CCn2cc(C3CC3)nn2)O[C@H]1CO
11. C[C@H](CO)N1C[C@H](C)[C@H](CN(C)C)Oc2ncc(C#Cc3ccccc3)cc2C1=O
Assay by compound	9	10	11
rRNA inh HTS	-3	1	8
rRNA inh HTS OD600	5	2	7
rRNA inh HTS RFP	4.7	-0.5	1.2
MLL AF4-AF9 inh	2.1	-2.9	-1.2

# Next entries follow:
13. COCC#Cc1cnc2c(c1)C(=O)N([C@H](C)CO)C[C@H](C)[C@@H](CN(C)S(=O)(=O)c1cccc(OC)c1)O2
14. C[C@@H]1CN([C@H](C)CO)C(=O)Cc2cc(NS(=O)(=O)c3cn(C)cn3)ccc2O[C@H]1CN(C)Cc1ccc(-c2ccccc2)cc1
15. COc1cccc(-c2cnc(C(O)c3ccc(F)cc3C)[nH]2)c1 (configuration not stated)
16. O=C(C[C@H]1C=C[C@@H](NC(=O)c2ccc(F)cc2)[C@@H](CO)O1)NCCc1ccccc1
17. C[C@@H]1CN([C@@H](C)CO)C(=O)Cc2cc(NC(=O)Cn3cnnn3)ccc2O[C@H]1CN(C)S(=O)(=O)c1cccs1
18. C[C@@H]1CN([C@@H](C)CO)C(=O)c2cccc(NC(=O)c3nc4ccccc4s3)c2O[C@@H]1CN(C)S(C)(=O)=O
Assay by compound	13	14	15	16	17	18
rRNA inh HTS	0	1	6	-4	2	-5
rRNA inh HTS OD600	3	-7	-5	-4	12	3
rRNA inh HTS RFP	-1.8	10	0.6	-1.2	0.0	1.1
MLL AF4-AF9 inh	-5.5	0.9	5.1	-2.6	-1.8	1.1

19. CCC(=O)N(C)C[C@@H]1Oc2cc(-c3ccc(C#N)cc3)ccc2S(=O)(=O)N([C@H](C)CO)C[C@H]1C
20. O=C(CN1CCOCC1)N1C[C@@H]2N[C@H](C1)C2c1ccc(/C=C/c2ccccc2)cc1 (some centres not stated)
21. O=C(CN1CCOCC1)N[C@@H]1CC[C@@H](CCNC(=O)C2CCCC2)O[C@@H]1CO
22. Cc1ccccc1S(=O)(=O)NCC[C@H]1CC[C@@H](NS(=O)(=O)c2ccccc2C)[C@H](CO)O1
23. CC(C)CC#Cc1ccc([C@@H]2[C@H](CO)N3C(=O)CN(C(=O)Nc4ccc(F)cc4)C[C@@H]23)cc1
24. CN(C)C(=O)[C@@H]1[C@@H](CO)[C@@H]2Cn3c(cccc3=O)[C@H]1N2CC1CCCCC1
Assay by compound	19	20	21	22	23	24
rRNA inh HTS	-7	0&-3	1	-2	-51	3
rRNA inh HTS OD600	-20	2&-5	9	-3	-68	10
rRNA inh HTS RFP	-3.5	-2.6&3.2	0.7	-0.2	-11	-1.1
MLL AF4-AF9 inh	-1.4	5.1&5.4	0.4	-0.1	4.0	-1.4

25. CN(C)CC#Cc1ccc([C@@H]2[C@@H](CO)N3C(=O)CN(C(=O)Cc4cccnc4)C[C@H]23)cc1
26. Cc1noc(C)c1S(=O)(=O)N(C)C[C@H]1OCCCC[C@H](C)Oc2ccc(NC(=O)Cc3ccccc3)cc2C(=O)N([C@@H](C)CO)C[C@H]1C
27. O=C(Cc1ccncc1)Nc1ccc2c(c1)[C@H]1C[C@@H](CC(=O)N3CCCCC3)O[C@@H](CO)[C@H]1O2
28. CN1c2ccc(-c3ccccc3)cc2[C@H]2[C@H](CCN2C(=O)Cc2ccccn2)[C@H]1CO
29. CCS(=O)(=O)Nc1ccc2c(c1)C(=O)N(C)C[C@@H](OC)[C@@H](C)CN(C(=O)C1CC1)[C@H](C)CO2
30. COc1ccccc1S(=O)(=O)Nc1ccc2c(c1)OC[C@H](C)NC[C@@H](C)[C@@H](OC)CN(C)C2=O
Assay by compound	25	26	27	28	29	30
rRNA inh HTS	1	0	2	4	1	2
rRNA inh HTS OD600	4	-6	6	-9	-14	-3
rRNA inh HTS RFP	-1.9	-0.1	-1.3	1.9	0.0	0.8
MLL AF4-AF9 inh	-1.0	-0.6	4.9	1.5	1.1	-1.0

31. C[C@H]1CN([C@@H](C)CO)C(=O)c2cccc(NC(=O)c3nc4ccccc4s3)c2O[C@H]1CN(C)Cc1ccc(C(=O)O)cc1
32. C[C@@H]1CN([C@H](C)CO)S(=O)(=O)c2ccc(C#CC(C)(C)O)cc2O[C@@H]1CN(C)CC1CC1
33. COC(=O)C[C@H]1CC[C@H]2[C@@H](COc3ccc(NS(C)(=O)=O)cc3C(=O)N2C)O1
34. COc1ccc(C(=O)Nc2ccccc2C(=O)NC2CC2)c(OC)c1OC
35. O=C(NC1CCCC1)N1CCCCN2[C@H](CO)[C@@H](c3ccc(-c4cccnc4)cc3)[C@@H]2C1
36. COc1ccc(NC(=O)N[C@H]2CC[C@H](CCNC(=O)c3cc(Cl)cc(Cl)c3)O[C@H]2CO)cc1
Assay by compound	31	32	33	34	35	36
rRNA inh HTS	-5	4	3	2	-2	-2
rRNA inh HTS OD600	-1	6	4	-2	-3	0
rRNA inh HTS RFP	0.1	-1.4	-0.6	-3.4	-1.4	-2.9
MLL AF4-AF9 inh	-13	-0.4	-3.7	1.3	-3.8	-1.8

37. O=C1C(Sc2cccc(F)c2)=C[C@@]2(O)CC[C@@H](O)[C@]1(Sc1cccc(F)c1)[C@H]2O
38. CCCN(C)C[C@H]1Oc2cc(C#Cc3ccccc3F)ccc2S(=O)(=O)N([C@H](C)CO)C[C@H]1C
39. CC(C)NC(=O)N(C)C[C@H]1Oc2ncc(C#CCc3ccccc3)cc2C(=O)N([C@@H](C)CO)C[C@H]1C
40. CCCCc1c(-c2ccccc2OC)ncn1C1CCCCC1
41. O=C(C[C@H]1CC[C@@H](NC(=O)c2cccnc2)[C@H](CO)O1)NCCN1CCCCC1
42. Cc1nc2c(C)cccn2c1/C(O)=C1\C(=O)C(=O)N(CCN(C)C)C1c1cccs1 (configuration not stated)
Assay by compound	37	38	39	40	41	42
rRNA inh HTS	-37*	1	2	-56	-3	-26*
rRNA inh HTS OD600	-29*	-16	9	-77	0	-15*
rRNA inh HTS RFP	-4.2*	16	-6.8	-18	2.7	7.5*
MLL AF4-AF9 inh	1.6	2.8	-4.8	12	-0.5	1.6

43. Fc1cccc(-c2ccc(C3[C@H]4CNC[C@@H]3N4CC3CCOCC3)cc2)c1 (some centres not stated)
44. O=C(Oc1cccc2ccccc12)c1ccccc1
45. COc1ccc(CN(C)C[C@@H]2Oc3c(NC(=O)Nc4c(C)noc4C)cccc3C(=O)N([C@H](C)CO)C[C@H]2C)cc1
46. Cc1cccc(-c2ccc([C@H]3[C@@H](CO)N4C(=O)CN(C(=O)Cc5ccccn5)C[C@@H]34)cc2)c1
47. COc1ccc2c3c([nH]c2c1)[C@@H](CO)NCC31CN(Cc2ccccc2F)C1
48. COC(=O)C1(C(=O)OC)C[C@H](c2cccs2)N(Cc2ccccc2OC)[C@@H]1c1ccc(F)cc1
Assay by compound	43	44	45	46	47	48
rRNA inh HTS	-2	-29	-3	-3	-1	13
rRNA inh HTS OD600	-1	-39	-2	-7	-9	11
rRNA inh HTS RFP	-2.6	-20	-0.8	3.9	4.5	1.2
MLL AF4-AF9 inh	7.2	-7.3	0.3	-1.1	8.1	-3.0

49. C[C@H]1CN([C@@H](C)CO)S(=O)(=O)c2ccc(C#Cc3ccc(F)cc3)cc2O[C@H]1CN(C)C
50. C[C@H](CO)N1C[C@H](C)[C@H](CN(C)Cc2ccncc2)Oc2ncc(-c3cccc(C#N)c3)cc2C1=O
51. O=C(O)C[C@H]1CC[C@H](NC(=O)Nc2cc(F)ccc2F)[C@H](CO)O1
52. CCCN1C[C@H](C)[C@@H](OC)CN(C)C(=O)c2ccc(NC(=O)Nc3ccccc3F)cc2OC[C@H]1C
53. CC(C)C#Cc1cnc2c(c1)C(=O)N([C@H](C)CO)C[C@H](C)[C@H](CN(C)Cc1cccc(F)c1)O2
54. O=C(C1CCCCC1)N1CC2(C1)[C@H](c1ccccc1)[C@H](CO)N2C(=O)c1cccnc1
Assay by compound	49	50	51	52	53	54
rRNA inh HTS	1	-1	0	-7	-1	1
rRNA inh HTS OD600	-7	0	2	2	-7	-1
rRNA inh HTS RFP	10	-4.8	-0.5	4.3	1.4	1.3
MLL AF4-AF9 inh	9.8	-3.1	-2.2	0.0	-2.5	0.8

55. C[C@H](CO)N1C[C@H](C)[C@H](CN(C)C(=O)c2cccc(F)c2)Oc2ncc(C#CCN(C)C)cc2C1=O
56. O=C(Nc1ccccc1)c1cc(C2CCCCN2C(=O)c2ccc3c(c2)CCO3)on1 (configuration not stated)
57. COc1ccccc1C(=O)Nc1ccc2c(c1)C(=O)N(C)[C@@H]1CC[C@@H](CC(=O)NCc3ccc(Cl)c(Cl)c3)O[C@@H]1CO2
58. CCCC#Cc1ccc2c(c1)O[C@H](CN(C)C(=O)Nc1ccc(OC)cc1)[C@H](C)CN([C@H](C)CO)S2(=O)=O
59. CC(C)[C@H]1COCCS(=O)(=O)N1Cc1ccccc1-c1cccc(Cl)c1
60. O=C(NC(=S)Nc1c(Cl)cc(Cl)cc1Cl)c1ccccc1
Assay by compound	55	56	57	58	59	60
rRNA inh HTS	2	-4	-4	-5	-9	3
rRNA inh HTS OD600	-10	0	-7	-14	-24	-31
rRNA inh HTS RFP	0.6	1.6	2.8	-0.2	-8.9	29
MLL AF4-AF9 inh	-3.2	2.3	-1.7	1.9	-0.4	-0.8

61. COc1ccc(Cc2c(-c3ccc(F)cc3)nc3ccc(Br)cn23)c(C)c1
62. CCCN1C[C@H](C)[C@H](OC)CN(C)C(=O)c2cc(NC(=O)CC(F)(F)F)ccc2OC[C@@H]1C
63. C[C@@H](NC(=O)C[C@@H]1CC[C@H]2[C@@H](COC[C@H](O)CN2Cc2cc(F)ccc2F)O1)c1ccccc1
64. COC(=O)C[C@@H]1CC[C@H](NC(=O)c2ccc3c(c2)OCO3)[C@@H](CO)O1
65. COc1ccc(S(=O)(=O)N2C[C@H](O)COC[C@H]3O[C@H](CC(=O)N[C@@H]4CCN(Cc5ccccc5)C4)CC[C@@H]32)cc1
66. COc1ccc(S(=O)(=O)Nc2ccc3c(c2)C(=O)N([C@@H](C)CO)C[C@H](C)[C@@H](CN(C)CC2CCCCC2)O3)cc1
Assay by compound	61	62	63	64	65	66
rRNA inh HTS	-4	1	2	8	0	0
rRNA inh HTS OD600	-3	3	19	9	-1	-6
rRNA inh HTS RFP	-0.2	0.4	-1.8	1.4	-2.1	0.1
MLL AF4-AF9 inh	3.3	-3.1	-5.8	-2.9	0.5	?

67. O=C1CN(S(=O)(=O)Cc2ccccc2)C[C@@H]2[C@@H](c3ccc(C#CC4CC4)cc3)[C@H](CO)N12
68. O=C(CCN1CCCCC1)NCC[C@@H]1CC[C@@H](NC(=O)C2CCOCC2)[C@H](CO)O1
69. CO[C@H]1CN(C)C(=O)c2ccc(NC(C)=O)cc2OC[C@@H](C)N(Cc2cncnc2)C[C@H]1C
70. O=C(Cc1ccc(NC(=O)C2CCN(C(=O)C3CC3)CC2)cc1)Nc1cccc(C(=O)N2CCCCC2)c1
Assay by compound	67	68	69	70
rRNA inh HTS	-29	2	2	0
rRNA inh HTS OD600	-61	0	2	5
rRNA inh HTS RFP	1.6	-0.4	0.0	2.5
MLL AF4-AF9 inh	5.9	-3.3	-0.5	2.0
